Screens: PubChem, ICCB-Longwood Screening Facility, Harvard Medical School
HCMV UL50-53 inh: inhibitors of HCMV UL50-UL53 nuclear egress complex interaction; 190,000 tested, 0.15% active; HTRF UL50-UL53 interaction, normalized percent inhibition; inhibition, % (no concentration beside the values);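 active means both replicates at 50% or more, plus weaker picks with an unusually low signal ratio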;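 further: stock transfer was 100 nL into about 20 µL; 0% = negative control wells and 100% = wells with untagged competitor protein; inactives centre near -12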
GIV-Gai inh: inhibitors of GIV GBA-motif binding to rat Galpha-i3 | P08753 | 210,000 tested, 0.42% active | percent of control (FP), % (concentration not given with the values) | Galpha-i3/FITC-GIV peptide fluorescence polarization, 90 min; stronger effect = lower value; scaled: aluminum fluoride 0%, vehicle 100%;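 active means replicate mean at 85% of control or lower, very high polarization wells dropped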;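 further: wells of about 15 µL received 100 nL stock; the first replicate is given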
Target sequence (P08753 whole entry, looked up): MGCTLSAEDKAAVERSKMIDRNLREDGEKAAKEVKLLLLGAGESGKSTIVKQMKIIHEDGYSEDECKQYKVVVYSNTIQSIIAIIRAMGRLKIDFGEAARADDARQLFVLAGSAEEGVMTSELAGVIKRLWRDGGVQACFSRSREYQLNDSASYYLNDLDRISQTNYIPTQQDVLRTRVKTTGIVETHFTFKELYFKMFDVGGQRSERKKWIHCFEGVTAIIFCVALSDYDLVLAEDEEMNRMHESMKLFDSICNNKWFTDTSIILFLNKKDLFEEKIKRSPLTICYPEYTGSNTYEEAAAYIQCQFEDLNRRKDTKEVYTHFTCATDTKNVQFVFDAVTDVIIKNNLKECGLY
Sa growth inh: inhibitors of Staphylococcus aureus growth at 42 °C; S. aureus RN4220 growth, OD600, 20 h; stronger effect = lower value; relative growth, % (concentration not given with the values); 170,000 tested, 0.53% active; AID 720641;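 active means growth at 42 °C up to 50% and 20 or more points under that at 30 °C, or under 10% at both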;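 further: 300 nL library stock went into each well; scaled to the means of positive and negative controls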
Sa growth inh second temp: further read-out of Sa growth inh, marked with its call; relative growth, %; measured here: growth at 30 °C;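 optical density after 20 h as mean of two plates; 100% = untreated growth and lower means inhibition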
* hit, by the source's call; . = not tested or not shown; & = joins results of further samples.

Below each compound: HCMV UL50-53 inh	GIV-Gai inh	Sa growth inh	Sa growth inh second temp
- O=C(CSc1nnc(C2CC2)n1Cc1ccco1)c1cccc(Cl)c1
    5	.	94	75
- O=S1(=O)C=C(SCCN2CCOCC2)c2ccccc21
    .	103	97	88
- CC(=O)N1CCc2cc(S(=O)(=O)CCC(=O)NCCc3ccc(Cl)cc3)ccc21
    8	113	.	.
- CCc1ccc(-n2c(=O)c3c(C)c(C)sc3n(CC(=O)NCc3ccc(C)cc3)c2=O)cc1
    -12	107	102	104
- O=C(COCc1cc(-c2ccco2)on1)N1CCc2ccccc2C1
    -43	111	106	68
- COc1ccc(NC(=O)C2CCCN(c3nc4ncccc4n4cccc34)C2)cc1 (stereo unspecified)
    -28	128	.	.
- N#CCSc1nc2c(n1-c1ccccc1)CCCC2
    -16	.	73	97
- O=C(NCc1cccnc1)c1cccn2c(=O)c3ccc(Cl)cc3nc12
    -53	95	93	86
- COc1ccc(N/C=C(\C#N)C(N)=S)cc1
    -5	106	109	117
- CCCc1ccc(-c2nc(CCC)no2)cc1
    6	103	96	85
- COc1ccc(-c2nc(C)c(CCNC(=O)c3ccc(F)c(F)c3)s2)cc1
    .	104	89	87
- COCc1nnc(C(=O)Nc2cccc(C(=O)NCCc3c[nH]c4ccc(Cl)cc34)c2)s1
    -8	108	.	.
- Cn1nc(NC(=O)CC(C)(C)CC(=O)O)c2ccccc21
    14	99	114	103
- CC(C)CCn1c(=O)c2ccccc2n2c(CN(C)CCOc3ccc(Cl)cc3)nnc12
    -25	.	88	92
- COc1ccccc1NC(=O)c1oc2ccccc2c1NC(=O)COc1ccccc1OC
    -8	104	103	93
- Cc1ccc(C)c(N2CCN(CCCNC(=O)c3c(-c4ccncc4)noc3C)CC2)c1
    -6	96	.	.
- CC(C)c1nn(-c2ccc(C(F)(F)F)cn2)c(=O)o1
    -16	105	93	98
- Cn1c2ccccc2c2cc(CC(N)=O)ccc21
    -8	100	109	72
- Cc1ccc(CN2CC(=O)N(c3ccc(C)cc3)[C@@H]3CS(=O)(=O)C[C@@H]32)cc1
    5	104	.	.
- COC(=O)c1[nH]c(=O)c2ccccc2c1OCc1ccccc1
    -41	.	91	94
- CN(C)C=NC(=S)c1sccc1CSc1ccc(Cl)cc1
    -13	108	103	90
- Cc1onc(-c2c(Cl)cccc2Cl)c1C(=O)n1c(C)nc2ccccc21
    -10	102	103	79
- CCc1ccn2cc(Nc3ccccc3Cl)nc2c1
    -22	196	21	0
- COc1ccc(S(=O)(=O)c2c(O)c(C)cc(NS(=O)(=O)c3ccc(Cl)cc3)c2C(C)C)cc1
    -6	97	102	93
- CC1CCCCC1NC(=O)Cn1ccc2ccccc21 (stereo unspecified)
    -29	.	98	85
- COc1ccccc1NC(=O)c1nnn(-c2ccc3noc(-c4ccccc4)c3c2)c1C
    -35	97	.	.
- O=C(NC1CCCC1)c1ccc(CSc2nc3cccnc3n2Cc2ccccc2)cc1
    .	101	130	93
- O=C(NCc1ccc(Cl)cc1)C1CCN(c2nn3cc(-c4ccc(F)cc4)nc3s2)CC1
    .	103	102	80
- Cc1ccc(-n2nc(C(=O)Nc3cccc(C#N)c3)c3c4ccccc4n(C)c3c2=O)cc1
    16	103	108	102
- CCOC(=O)C1=C(C)Nc2c(C(=O)Nc3ccc(OCC)cc3)cnn2C1c1cc(OC)ccc1OC (stereo unspecified)
    -1	109	106	90
- CC(C)c1ccc(C2=CC(c3ccc(C(C)C)cc3)n3nnnc3N2)cc1 (stereo unspecified)
    .	106	120	90
- COc1ccc(-c2cc(C(F)(F)F)nc(SCC(=O)NN3CCN(C)CC3)n2)cc1
    -20	99	94	102
- CC(C)(O)C#Cc1ccc(C(=O)NCCC(=O)O)s1
    2	104	98	111
- COc1ccc(CNC(=O)Cn2c(=O)oc3cc(S(=O)(=O)NCc4ccccc4)ccc32)cc1
    .	103	99	86
- Oc1ccc(COCc2ccccc2)c2cccnc12
    -42	.	17	13
- Cc1csc(-n2nc(C)c(CC(=O)N3CCCC3)c2C)n1
    -20	104	.	.
- O=C(N/N=C/c1ccncc1)C1CC1C(=O)N/N=C/c1ccncc1 (stereo unspecified)
    -42	101	101	81
- O=C(NCCCn1c(C(F)(F)F)nc2cccnc21)Nc1ccc(Br)cc1F
    -14	104	.	.
- Cc1cccc(NC(=O)Cn2nc(-c3ccc(Cl)cc3)c3ccccc3c2=O)c1
    4	101	107	103
- Cc1ccc(NC(=O)c2cc(S(=O)(=O)NCCc3ccc(Cl)cc3)ccc2F)cc1
    .	106	104	93
- CC(C)n1cnc2nc(CSc3ccccc3NC(=O)COc3ccccc3F)cc(=O)n21
    -30	99	.	.
- CCOc1ccc(-n2c(SCC(=O)Nc3ccccc3OC)nc3c(oc4ccccc43)c2=O)cc1
    6	96	99	93
- CN1CCN(C(=O)c2cc3n(n2)CC(C)(C(=O)NC2CCCCC2)N(C)C3=O)CC1 (stereo unspecified)
    -2	103	.	.
- CCc1ccc(NC(=O)Cn2c(=O)n(CCCCC(=O)NCc3ccc4c(c3)OCO4)c(=O)c3ccccc32)cc1
    3	106	101	89
- COc1ccc(CCN(C)C(=O)COc2nncc3ccccc23)cc1OC
    -1	.	117	106
- CN(C)S(=O)(=O)c1ccc(C(=O)Nc2c(C#N)oc3ccccc23)cc1
    -14	.	109	96
- COC(=O)c1nnc(-c2ccccc2)c(-c2ccccc2)n1
    -47	102	109	87
- CCn1nnc2cc(C(=O)NC3CCCc4ccccc43)ccc21 (stereo unspecified)
    -12	.	91	83
- COc1cc2nc(=S)n3c(c2cc1OC)NC(CCC(=O)NCCN1CCN(c2cccc(Cl)c2)CC1)C3=O (stereo unspecified)
    -51	105	84	73
- CCC(=O)N1CCc2cc(Br)cc(S(=O)(=O)CCC(=O)N(C)c3cccc(C)c3)c21
    6	96	99	93

Entries above with a furan ring, fused or not, in the order listed:
Below each compound: HCMV UL50-53 inh	GIV-Gai inh	Sa growth inh	Sa growth inh second temp
- O=C(CSc1nnc(C2CC2)n1Cc1ccco1)c1cccc(Cl)c1
    5	.	94	75
- O=C(COCc1cc(-c2ccco2)on1)N1CCc2ccccc2C1
    -43	111	106	68
- COc1ccccc1NC(=O)c1oc2ccccc2c1NC(=O)COc1ccccc1OC
    -8	104	103	93
- CCOc1ccc(-n2c(SCC(=O)Nc3ccccc3OC)nc3c(oc4ccccc43)c2=O)cc1
    6	96	99	93
- CN(C)S(=O)(=O)c1ccc(C(=O)Nc2c(C#N)oc3ccccc23)cc1
    -14	.	109	96

Further results:
Below each compound: HCMV UL50-53 inh	GIV-Gai inh	Sa growth inh	Sa growth inh second temp
- COc1ccc(CN(Cc2cccnc2)C(=S)NCc2ccco2)cc1OC
    -5	102	108	66
- O=C(Nc1ccccc1)c1cccc(S(=O)(=O)Nc2cccc(F)c2)c1
    .	100	116	82
- Nc1ccc(C(=O)N/N=C/c2cccn2-c2ccc(S(N)(=O)=O)cc2)cc1
    -79	.	99	91
- CC1CCN(S(=O)(=O)c2ccc3ncn(CC(=O)Nc4cnc5ccccc5c4)c(=O)c3c2)CC1
    2&7	104&103	99	85
- COc1ccc(OC)c(C2N=C(Nc3ccc(F)cc3)Nc3nc(C)cc(=O)n32)c1 (stereo unspecified)
    -18	95	.	.
- CN(C(=O)/C=C/c1ccc(Br)o1)c1ccccc1
    -46	.	89	97
- O=C(c1ccco1)c1cn(CCOc2ccc(F)cc2)c2ccccc12
    -20	103	93	84
- O=C(O)C1C(C(=O)O)C1C(=O)O (stereo unspecified)
    10	106	112	83
- Cc1onc(-c2c(F)cccc2Cl)c1C(=O)Nc1ccc(OC(C)C)cc1
    -9	98	97	95
- CCOC(=O)c1nc2ccccc2nc1N1CCC2(C1)OCCO2
    -68	98	.	.
- CCc1ccccc1N1C(=O)c2sc3nc(C)cc(COC)c3c2NC1C (stereo unspecified)
    -54	106	.	.
- CN1C(=O)/C(=C\C2(C)N3CC4(C)CN2CC(C)(C3)C4=O)c2ccccc21 (stereo unspecified)
    -29	100	81	112
- CC1CC(CC(C)C(=O)NC(=S)Nc2nncs2)C(=O)O1 (stereo unspecified)
    .	99	98	92
- O=C1NC(=O)C2(COC(c3cccnc3)OC2)S1 (stereo unspecified)
    -17	105	81	83
- CC1Cc2cc(S(=O)(=O)N3CCN(C4CCCCC4)CC3)ccc2N1C(=O)C1CC1 (stereo unspecified)
    -12	105	.	.
- O=C(c1cc(-c2ccc3c(c2)OCO3)on1)N1CCCC1c1cccc(F)c1 (stereo unspecified)
    -17	106	.	.
- CCCN1C(=O)c2cc(C(=O)NCc3cccs3)ccc2C1O (stereo unspecified)
    .	99	112	87
- CCOC(=O)c1ccccc1NC(=O)NCc1cc(=O)n2nc(-c3ccccc3)sc2n1
    -30	106	.	.
- COc1ccc(C(=O)CN2CCN(C(=O)CC(C)C)CC2)cc1
    -7	102	85	107
- O=c1cc(-n2ccc(C(F)(F)F)n2)oc2ccccc12
    -15	107	93	78
- COc1ccc2c(c1)c(-c1csc(N)n1)c(C)n2C
    3	.	111	88
- CCN(C(=O)c1cccc(OC)c1)C1CCS(=O)(=O)C1 (stereo unspecified)
    -11	96	96	88
- CCOC(=O)c1c(CN2CCN(c3ccccc3)CC2)oc2cc(Br)c(OC(C)=O)cc12
    2	103	105	102
- N/C(CN1CCCCC1)=N\O
    1	104	106	100
- CCN1OCN(c2nc(N(C)C)nc(N(C)C)n2)C1=N
    .	99	119	90
- O=C(Nc1nnc(S(=O)(=O)N2CCc3ccccc32)s1)c1ccccc1Cl
    -6	104	115	102
- CC(C)=C1C2CC2C2C(C(=O)O)C12 (stereo unspecified)
    -1	99	118	98
- COc1ccc(-n2c(=O)c3c(c4cc(OC)ccc4n3C)n(C)c2=O)cc1
    .	100	85	89
- O=C(CC(C(=O)O)N1CCN(c2cccc(Cl)c2)CC1)c1ccc(C2CCCCC2)cc1 (stereo unspecified)
    -1	.	102	58
- CC(C)(C)c1csc(CS(=O)(=O)c2ccccn2)n1
    0	103	103	75

Single records (already shown).
Entry for `CCCN1C(=O)c2cc(C(=O)NCc3cccs3)ccc2C1O` (stereo unspecified) → HCMV UL50-53 inh: .; GIV-Gai inh: 99; Sa growth inh: 112; Sa growth inh second temp: 87
Entry for `O=C(c1ccco1)c1cn(CCOc2ccc(F)cc2)c2ccccc12` → HCMV UL50-53 inh: -20; GIV-Gai inh: 103; Sa growth inh: 93; Sa growth inh second temp: 84

The listing continues:
Below each compound: HCMV UL50-53 inh	GIV-Gai inh	Sa growth inh	Sa growth inh second temp
- COC(=O)c1ccc(CSc2nnc3c4ccccc4n(C)c3n2)cc1
    -11	.	87	82
- Cc1cnc(NC(=O)CSCc2nc3scc(-c4cccs4)c3c(=O)[nH]2)s1
    -14	.	96	90
- Cc1nn(-c2ccccc2)cc1-c1noc(C(=O)NC2CCCC2)n1
    -21	102	.	.
- COc1ccc(NC(=O)Cn2c(=O)c3cccn3c3ccccc32)cc1
    -5	106	115	102
- Cc1cc(C)nc(Nc2n[nH]c(-c3cccnc3)n2)n1
    5	104	111	104
- O=C(OCC(=O)N1CCCC1)c1cn(-c2ccccc2)nc1-c1ccccc1
    15	.	78	87
- COc1cc(NC(=O)CSCc2cnn(-c3ccccc3)c2-n2cccc2)cc(OC)c1
    4	107	106	96
- Cc1nnc(SC(C)C(=O)Nc2ccc(Cl)cn2)s1 (stereo unspecified)
    -34	.	106	91
- Cc1nc2ccccc2c(=O)n1OC(=O)c1ccc(C(C)(C)C)cc1
    17	113	.	.
- Cc1nnc(Nc2ccc(N3CCCCC3)cc2)[nH]c1=O
    11	105	102	105
- C#CCSc1nc2ccccc2[nH]1
    -3	106	87	85
- CCCN1C(=O)c2ccccc2NC1c1ccc(OC)c(COc2ccc(F)cc2)c1 (stereo unspecified)
    1	107	.	.
- Cc1ccc(S(=O)(=O)C(CNC(=O)C(=O)NCCc2ccc(Cl)cc2)c2ccco2)cc1 (stereo unspecified)
    .	95	125	97
- Oc1ccc(-c2nc(-c3cccs3)c(-c3cccs3)[nH]2)cc1
    -9	100	102	76
- N#Cc1ccc(NC(=O)c2cc3cc4c5c(c3oc2=N)CCCN5CCC4)cc1
    .	-14*	121	70
- Cc1c(Cl)cccc1NC1=CC(=O)CCC1
    -3	106	114	94
- CCC(C(=O)NCCCN(C)c1ccccc1)N1C(=O)CCn2nc(C)cc21 (stereo unspecified)
    -9	106	.	.
- CC(=O)NNC(=O)N1Cc2ccccc2Oc2ccc(Cl)cc21
    -3&-24	101	.	.
- CC1(C)OC(c2ccccc2)=C/C(=C/C=C(C#N)C#N)O1
    -38	197	94	90
- CCOC(=O)c1sc(N)c(C#N)c1CSc1nc2ccc(OCC)cc2[nH]1
    -6	.	83	102
- CCN1C(=O)C(Cc2nc3ccccc3c(=O)[nH]2)c2ccccc21 (stereo unspecified)
    -13	103	92	87
- COc1ccc(CN2CCCN(S(=O)(=O)c3ccc(Br)cc3)CC2)cc1
    -12	103	88	87
- COc1ccc2c(CNCCc3ccco3)c(C(=O)O)n(Cc3ccc(F)cc3)c2c1
    .	107	98	87
- O=c1cc(N2CCCCC2)nc2n1CCCS2
    .	106	100	89
- O=C(NCCCn1ccnc1)c1cc2nc3c(c(C(F)(F)F)n2n1)CCc1ccccc1-3
    0	110	.	.
- CC(C)(C)c1ccc(C(=O)Nc2nnc3n2CCS3)cc1
    .	101	103	28
- N#CCN(CC#N)C(=O)N1CCOCC1
    -14	102	100	91
